NOMO-1 viab: STK33 inhibitor candidate reducing NOMO-1 cell viability. NOMO-1 AML viability, CellTiter-Glo luminescence, 72 h. inhibition, % (test concentration not listed). 7.5% of 37,000 active;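 active means most replicates above 80%; inconclusive means exactly half above 80%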;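 further: wells of about 30 µL received 25 nL stock; 0% = median of vehicle wells and 100% = reference inhibitor level; the first replicate is given; inactives centre near 10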
* marks the source's active call; other numbers are inactive results; ? = inconclusive. A portion of the library; rates above refer to the full screens.

SMILES	NOMO-1 viab
O=C(c1cccs1)N(Cc1ccc(Br)cc1)c1ccc(F)cc1	31.0
C[C@@H]1CCCCO[C@H](CN(C)S(=O)(=O)c2cccs2)[C@@H](C)CN([C@H](C)CO)C(=O)c2cc(NC(=O)Nc3ccc(C(F)(F)F)cc3)ccc2O1	90.1*
COc1cccc(CN2CCN(C(=O)c3cc(-c4ccccn4)nc4ccc(Cl)cc34)CC2)c1	39.4
C[C@H](CO)N1C[C@H](C)[C@H](CN(C)S(=O)(=O)c2cccs2)Oc2ccc(NC(=O)NC3CCCCC3)cc2C1=O	0.6
COc1ccc(NC(=O)N(C)C[C@@H]2Oc3c(NC(=O)C4CC4)cccc3C(=O)N([C@H](C)CO)C[C@@H]2C)cc1	14.3
Cc1ccc(S(=O)(=O)N(C)CC(=O)Nc2ccc(Br)cc2F)cc1	-15.8
C[C@@H]1CCCCO[C@@H](CN(C)C(=O)CCCN(C)C)[C@@H](C)CN([C@H](C)CO)C(=O)c2cc(NC(=O)c3ccccc3)ccc2O1	-36.3
Cc1noc(C)c1S(=O)(=O)Nc1ccc2c(c1)CC(=O)N([C@H](C)CO)C[C@H](C)[C@H](CN(C)C(=O)Nc1cccc3ccccc13)O2	25.2
Cc1ccc(S(=O)(=O)N(C)C[C@@H]2Oc3ccc(NC(=O)CCN4CCOCC4)cc3CC(=O)N([C@H](C)CO)C[C@@H]2C)cc1	-23.2
COc1ccc(C)cc1S(=O)(=O)N(C)CC(=O)Nc1ccc(Br)cc1F	10.9
Cc1ccccc1NC(=O)NCCCN1CCN(C)CC1	31.9
C[C@H]1CN([C@@H](C)CO)C(=O)Cc2cc(NC(=O)c3ccncc3)ccc2O[C@H]1CN(C)S(=O)(=O)c1cccs1	-8.9
Cc1ccc(C(=O)Nc2ccc(Br)cc2)cc1S(=O)(=O)Nc1ccccn1	-0.1
CC1(C)CC[C@]2(C(=O)O[C@@H]3O[C@H](CO[C@@H]4O[C@H](CO[C@@H]5O[C@H](CO)[C@@H](O)[C@H](O)[C@H]5O)[C@@H](O)[C@H](O)[C@H]4O)[C@@H](O)[C@H](O[C@@H]4O[C@H](CO)[C@@H](O)[C@H](O)[C@H]4O)[C@H]3O)CC[C@]3(C)C(=CCC4[C@@]5(C)CC[C@H](O)[C@@](C)(C(=O)O)C5CC[C@]43C)C2C1 (some centres undefined)	24.8
COc1ccc(NC(=O)N(C)C[C@@H]2Oc3c(cccc3N(C)C)C(=O)N([C@H](C)CO)C[C@H]2C)cc1	-10.2
C[C@@H]1CN([C@H](C)CO)C(=O)Cc2cc(NC(=O)Nc3cccc4ccccc34)ccc2O[C@@H]1CN(C)Cc1ccc(C(F)(F)F)cc1	105.1*
Cc1ccc(S(=O)(=O)Nc2ccc3c(c2)CC(=O)N([C@@H](C)CO)C[C@@H](C)[C@@H](CN(C)C(=O)Nc2c(C)noc2C)O3)cc1	0.2
NC(=O)c1c(NC(=O)COc2cccc(C(F)(F)F)c2)sc2c1CCC2	1.8
Cc1ccc(NC(=O)Cn2nc([N+](=O)[O-])cc2C)cc1	4.8
CC(C)NC(=O)N(C)C[C@H]1Oc2ccc(N(C)C)cc2CC(=O)N([C@@H](C)CO)C[C@@H]1C	-8.3
CCOC(=O)c1nnn2c1nc(SCc1ccc(F)cc1)c1ccccc12	-2.5
C[C@@H]1CCCCO[C@H](CN(C)S(=O)(=O)c2ccccc2)[C@@H](C)CN([C@H](C)CO)C(=O)c2cc(NC(=O)CCCCCC(=O)Nc3ccccc3N)ccc2O1	15.7
C[C@@H]1CN([C@H](C)CO)C(=O)Cc2cc(NC(=O)C3CCCCC3)ccc2O[C@H]1CN(C)S(=O)(=O)c1ccc(F)cc1	8.2
C[C@H](CO)N1C[C@H](C)[C@H](CN(C)Cc2ccccc2)Oc2ccc(N(C)C)cc2CC1=O	4.7
COc1ccc(NC(=O)Nc2ccc3c(c2)C(=O)N([C@@H](C)CO)C[C@@H](C)[C@@H](CN(C)C(=O)Nc2c(C)noc2C)O3)cc1	0.4
C[C@@H]1CN([C@@H](C)CO)C(=O)c2cccc(NS(=O)(=O)c3ccccc3)c2O[C@H]1CN(C)Cc1ccc(-c2ccccc2)cc1	39.7
CCn1c(SCC(=O)c2ccc(OC)cc2)nnc1-c1ccc(Cl)cc1	11.6
C[C@@H]1CN([C@H](C)CO)C(=O)c2cccc(NC(=O)Nc3ccc(C(F)(F)F)cc3)c2O[C@H]1CN(C)Cc1ccc(-c2ccccc2)cc1	109.6*
COc1ccc(CN(C)C[C@H]2Oc3c(NC(=O)C4CCCCC4)cccc3C(=O)N([C@H](C)CO)C[C@H]2C)cc1	20.3
COc1ccc(NC(=O)COc2ccccc2OC)cc1OC	25.5

4 entries from above, with each value named:
C[C@@H]1CN([C@@H](C)CO)C(=O)c2cccc(NS(=O)(=O)c3ccccc3)c2O[C@H]1CN(C)Cc1ccc(-c2ccccc2)cc1
  NOMO-1 viab: 39.7
CCn1c(SCC(=O)c2ccc(OC)cc2)nnc1-c1ccc(Cl)cc1
  NOMO-1 viab: 11.6
C[C@@H]1CN([C@H](C)CO)C(=O)c2cccc(NC(=O)Nc3ccc(C(F)(F)F)cc3)c2O[C@H]1CN(C)Cc1ccc(-c2ccccc2)cc1
  NOMO-1 viab: 109.6*
COc1ccc(CN(C)C[C@H]2Oc3c(NC(=O)C4CCCCC4)cccc3C(=O)N([C@H](C)CO)C[C@H]2C)cc1
  NOMO-1 viab: 20.3

Continued:
SMILES	NOMO-1 viab
COc1ccc(C)cc1NC(=O)NCCc1ccc(OC)c(OC)c1	9.3
O=c1c(Cc2cc(Cl)cc(Cl)c2O)c(O)nc2n1CCCS2	5.0
Cn1cnnc1SCC(=O)Nc1ccc(Cl)cc1	-9.2
CC(=O)Nc1ccc(Cl)c(Cl)c1	-16.2
Nc1ccc(-c2nnc(SCC(=O)Nc3ccc(Br)cc3F)n2-c2ccccc2)cc1	19.3
C[C@H](CO)N1C[C@H](C)[C@H](CN(C)Cc2ccc(C(=O)Nc3ccccc3N)cc2)Oc2ccc(NS(=O)(=O)c3ccc(F)cc3)cc2CC1=O	140.0*
O=C(O)CNS(=O)(=O)c1ccc(Cl)c(Cl)c1	-7.3
C[C@@H]1CN([C@H](C)CO)C(=O)c2cc(NS(=O)(=O)c3ccccc3)ccc2O[C@@H]1CN(C)S(=O)(=O)c1ccc(F)cc1	36.1
O=C(CN1CCOCC1)Nc1ccccc1[N+](=O)[O-]	-3.5
C[C@H]1CN([C@@H](C)CO)C(=O)c2cc(NC(=O)Nc3ccccc3)ccc2O[C@H]1CN(C)C(=O)Nc1ccc(F)cc1	17.2
Cc1noc(C)c1S(=O)(=O)Nc1ccc2c(c1)C(=O)N([C@H](C)CO)C[C@H](C)[C@H](CN(C)C(=O)Nc1ccc(C(F)(F)F)cc1)OCCCC[C@@H](C)O2	?
COc1ccc(S(=O)(=O)Nc2cccc3c2O[C@@H](CN(C)C(=O)NC2CCCCC2)[C@H](C)CN([C@@H](C)CO)C3=O)cc1	12.5
COc1ccc(S(=O)(=O)N(C(C)=O)c2ccc3oc4c(c3c2)CC(C)CC4)cc1[N+](=O)[O-] (centres undefined)	-11.0
CC1(C)CC(=O)C=C(SCc2c(Cl)cccc2Cl)S1	30.7
O=C(COc1ccc([N+](=O)[O-])cc1)Nc1ccc2oc(-c3ccc(F)cc3Cl)nc2c1	27.7

Part of the list above in another layout.
COc1ccc(S(=O)(=O)Nc2cccc3c2O[C@@H](CN(C)C(=O)NC2CCCCC2)[C@H](C)CN([C@@H](C)CO)C3=O)cc1
  NOMO-1 viab: 12.5

COc1ccc(S(=O)(=O)N(C(C)=O)c2ccc3oc4c(c3c2)CC(C)CC4)cc1[N+](=O)[O-] (centres undefined)
  NOMO-1 viab: -11.0

CC1(C)CC(=O)C=C(SCc2c(Cl)cccc2Cl)S1
  NOMO-1 viab: 30.7

O=C(COc1ccc([N+](=O)[O-])cc1)Nc1ccc2oc(-c3ccc(F)cc3Cl)nc2c1
  NOMO-1 viab: 27.7

Other entries.
SMILES	NOMO-1 viab
C[C@H]1CN([C@@H](C)CO)C(=O)c2cc(NC(=O)Nc3ccc(C(F)(F)F)cc3)ccc2O[C@@H]1CN(C)S(C)(=O)=O	18.2
COc1ccc(NC(=O)N(C)C[C@@H]2Oc3c(NS(=O)(=O)c4cccs4)cccc3C(=O)N([C@H](C)CO)C[C@@H]2C)cc1	21.3
Cc1noc(C)c1S(=O)(=O)Nc1ccc2c(c1)C(=O)N([C@H](C)CO)C[C@H](C)[C@@H](CN(C)S(=O)(=O)c1ccc(F)cc1)O2	10.1
Cc1ccc(NC(=O)CN(c2ccc(Cl)c(C(F)(F)F)c2)S(C)(=O)=O)cc1Cl	54.6
CC(C)NC(=O)Nc1ccc2c(c1)C(=O)N([C@H](C)CO)C[C@H](C)[C@H](CN(C)S(C)(=O)=O)OCCCC[C@@H](C)O2	-1.6
O=C1CC2(CCCC2)CC(=O)N1CCCCNCC1COc2ccccc2O1 (centres undefined)	16.6
COc1ccc(S(=O)(=O)N(C)C[C@@H]2Oc3ccc(NC(=O)Nc4ccc5c(c4)OCO5)cc3CC(=O)N([C@H](C)CO)C[C@H]2C)cc1	-12.3
C[C@@H]1CN([C@H](C)CO)C(=O)c2cc(NS(=O)(=O)c3ccc(F)cc3)ccc2O[C@H]1CN(C)CC1CC1	22.8
CCCCC(C(=O)O)N1C(=O)c2ccccc2C1=O (centres undefined)	-2.4
Cc1cc(C(=O)Nc2cccc3c2O[C@H](CN(C)S(C)(=O)=O)[C@H](C)CN([C@@H](C)CO)C3=O)n(C)n1	-4.5
C[C@@H]1CN([C@H](C)CO)C(=O)Cc2cc(NC(=O)Nc3cccc4ccccc34)ccc2O[C@H]1CN(C)CC1CCCCC1	9.2
CC(Oc1ccc2c(=O)c(-c3ccc(Cl)cc3)c(C(F)(F)F)oc2c1)C(=O)O (centres undefined)	10.3
COc1cccc2c(=O)c(CCC(=O)O)c(C)[nH]c12	-11.0
Cc1ccc(S(=O)(=O)N(C)C[C@H]2Oc3c(NC(=O)C4CCCCC4)cccc3C(=O)N([C@@H](C)CO)C[C@@H]2C)cc1	16.0
C=C(CO)[C@]1(O)C[C@@]2(C)C(=CC1=O)C=C[C@@H](O)[C@@H]2C	4.8
CCOc1ccc(NC(=O)CC2NC3CCCCC3NC2=O)cc1 (centres undefined)	14.3
Cc1ccc(N(C(=O)COc2ccc(C(C)(C)C)cc2)C2C=CS(=O)(=O)C2)cc1 (centres undefined)	24.7
CC(=O)O[C@@]1(C)C[C@@H](OC(=O)/C=C/c2ccc(O)cc2)[C@@H]2C(C(=O)O)=COC(O[C@@H]3O[C@H](CO)[C@@H](O)[C@H](O)[C@H]3O)[C@@H]21 (some centres undefined)	-11.0
O=C(CSc1nc2ncccc2[nH]1)Nc1ccccc1F	-3.3
O=C(COc1ccccc1[N+](=O)[O-])Nc1ccccc1N1CCN(C(=O)c2ccccc2)CC1	31.2
COC(=O)C1=C(C)NC(C)=C(C(=O)OC)C1c1cc(Br)ccc1OCC(N)=O	-0.2
Cc1noc(C)c1NC(=O)Nc1ccc2c(c1)C(=O)N([C@H](C)CO)C[C@H](C)[C@@H](CN(C)C(=O)c1ccccc1)OCCCC[C@@H](C)O2	3.8
C[C@@H]1CN([C@H](C)CO)C(=O)Cc2cc(NS(C)(=O)=O)ccc2O[C@@H]1CN(C)Cc1ccncc1	10.3
C[C@@H]1CN([C@H](C)CO)C(=O)c2cc(NC(=O)C3CC3)ccc2O[C@H]1CN(C)CC1CCCCC1	-14.0
COc1ccc(S(=O)(=O)N(C)C[C@@H]2Oc3ccc(NC(=O)C4CC4)cc3C(=O)N([C@@H](C)CO)C[C@@H]2C)cc1	20.1
CC(=O)NCCCN(CCCCN(CCCNC(=O)/C=C/c1ccc(O)cc1)C(C)=O)C(=O)/C=C/c1ccc(O)cc1	-0.6
Cc1cccc(C)c1NC(=O)COc1cc(O)c2c(=O)cc(-c3ccccc3)oc2c1	?
